High-throughput results: PubChem BioAssay, several laboratories
CBX7 AlphaScr = CBX7 inhibition, primary AlphaScreen; normalised signal (fraction of DMSO) (concentration not given with the values); O95931; AID 1224903; 66,000 tested, 1.1% active; AlphaScreen His6-CBX7 / biotin-H3K27me3 peptide binding; active compounds read low; in the data active means normalised signal below about 0.5;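 further: 100 nL library stock added to about 20 µL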
Target sequence (O95931 whole entry, looked up): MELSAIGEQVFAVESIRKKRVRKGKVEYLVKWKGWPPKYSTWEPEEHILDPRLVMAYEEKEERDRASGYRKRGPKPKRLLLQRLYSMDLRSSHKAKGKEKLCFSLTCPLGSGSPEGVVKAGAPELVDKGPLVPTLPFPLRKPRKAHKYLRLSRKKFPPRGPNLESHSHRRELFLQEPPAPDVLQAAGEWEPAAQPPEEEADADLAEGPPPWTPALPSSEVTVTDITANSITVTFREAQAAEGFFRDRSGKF
CBX7 AlphaScr z-score = recorded beside CBX7 AlphaScr, whose call it bears; z-score; measured here: z-score of CBX7 signal; some inactives read as strong as hits; reference of the scale not given here;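 same signal on another scale; lower means less binding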
The depositor's hits bear a star; & = joins results of further samples. The list is partial; the hit share may differ from the screen's.

SMILES | CBX7 AlphaScr | CBX7 AlphaScr z-score
Cc1cccc(C)c1OCc1nnc(SCC(=O)Nc2nccs2)o1 | 1 | 0.16
O=C(c1ccc2c(c1)N(Cc1ccccc1F)C(=O)c1ccccc1S2=O)N1CCOCC1 (configuration not stated) | 0.98 | -0.48
Cn1c(C(=O)N2CCCC(C(=O)NCc3cccs3)C2)cc2sccc21 (configuration not stated) | 0.87 | -3.8
COc1ccc(-c2cn(-c3ccc(Br)cc3)c(=O)[nH]2)cc1 | 0.98 | -0.47
COCCCNC(=O)C1CCN(C(=O)c2cnn(-c3ccccc3)c2-n2cccc2)CC1 | 1.2 | 1.7
OCCN(CCO)c1nc(-c2ccccc2)nc2c1oc1ccccc12 | 1 | 0.79
CCN(CCCNC(=O)CCCN1C(=O)COc2ccc(C)cc21)c1cccc(C)c1 | 0.85 | -3.4
CCN(CC)S(=O)(=O)c1ccc2c(c1)N(CC(=O)N1CCN(C)CC1)C(=O)CO2 | 1 | 0.034
O=C(Nc1c2c(nn1-c1cccc(Cl)c1)CS(=O)(=O)C2)C1CC1 | 1.2 | 1.2
Cc1ccc(NC(=O)c2cnc(Nc3nc4ccccc4o3)nc2C)cc1 | 1 | 0.046
O=C(Nc1ccc(NC(=O)c2cccs2)cc1Cl)c1ccccc1 | 0.99 | -0.32
CCOc1ccc(-c2cc3cc(OC)c(OC)cc3c(Cc3ccc(OC)c(OC)c3)n2)cc1 | 0.96 | -1.2
O=C(CSc1oc(-c2ccc(F)cc2)nc1S(=O)(=O)c1ccccc1)c1ccc(Cl)cc1 | 0.88 | -0.96
O=C(Cn1nc(Cc2cccnc2)c2ccccc2c1=O)NCC1COc2ccccc2O1 (configuration not stated) | 1.2 | 1.9
CCOc1cc2c(cc1OCC)C(c1ccc(Cl)cc1)CC(=O)N2 (configuration not stated) | 0.99 | -0.13
COCCNC(=O)CN1C(=O)CSc2ccc(S(=O)(=O)N3CCOCC3)cc21 | 0.85 | -1.8
Cc1c(C(=O)NC2CCCc3ccccc32)oc2ccc(S(=O)(=O)N3CCOCC3)cc12 (configuration not stated) | 1 | 0.2
COCCOc1cc([N+](=O)[O-])cc2c1C(=O)Nc1ccccc1O2 | 0.65 | -3.9
CC(C)N(C)C1CCN(C(=O)Nc2ccccc2)CC1 | 1.1 | 1.3
Clc1ccc(-c2cc(-c3ccc(Cl)cc3)n(-c3ccccc3Br)n2)cc1 | 0.91 | -1.4
Cc1cccc(-n2c(Cc3cc(=O)[nH]c(=O)[nH]3)nnc2SCC(N)=O)c1 | 0.98 | -0.86
COC(=O)CC1Oc2ccccc2N(Cc2ccc(C)cc2)C1=O (configuration not stated) | 0.84 | -3.3
CC1CCN(S(=O)(=O)c2ccc(-c3csc(-c4cccnc4)n3)cc2)CC1 | 0.88 | -1.4
CCN(CC)C(=O)Cn1cnc2sc(C(=O)Nc3ccc(C)cc3Br)c(C)c2c1=O | 0.97 | -0.91
O=C(O)CCNc1c(C(=O)O)cnc2ccccc12 | 0.98 | -0.5
COc1ccc(-c2nc3cc(C)ccn3c2NC(=O)COc2ccc(Cl)cc2Cl)cc1 | 1 | -0.0065
Cc1ccc(-c2nc3cc(Cl)ccc3o2)cc1NC(=O)c1ccc(F)cc1 | 1 | 0.3
CCN(CC)S(=O)(=O)c1ccc2c(c1)N(CC(=O)NCc1ccc(OC)cc1)C(=O)CO2 | 1 | 1.4
O=C(CN1C(=O)COc2ccc(S(=O)(=O)N3CCOCC3)cc21)NC1CCCc2ccccc21 (configuration not stated) | 1 | 1.4
CCc1cccc(NC(=O)Cc2c(C(=O)O)[nH]c3ccc(Cl)cc23)c1 | 0.98 | -0.73
CC(C)c1ccc2oc(-c3ccc(NC(=O)c4cccnc4)cc3)nc2c1 | 0.98 | -0.019
CC1(C)OC(=O)N2CCc3c([nH]c4ccccc34)C21C (configuration not stated) | 0.97 | -1.8
O=C(CSc1nc(-c2ccc(Br)cc2)[nH]c1-c1ccccc1)Nc1nccs1 | 0.96 | -0.72
O=C(NCCCN1CCOCC1)C(=O)NCc1ccccc1Cl | 1 | 0.89
O=C(Nc1ccc2c(c1)OCO2)C(c1ccccc1)N1CCC(Cc2ccccc2)CC1 (configuration not stated) | 0.74 | -1.6
Clc1ccc(-c2noc(C3CCCCC3)n2)cc1 | 1.3 | 3.4
O=P(c1ccccc1)(c1ccccc1)c1nc(-c2ccc(Cl)cc2Cl)oc1N1CCOCC1 | 1.3 | 0.6
CCN(CCCNC(=O)Cn1nc(Cc2ccncc2)c2ccccc2c1=O)Cc1ccccc1 | 1.1 | 2
CNC(=O)c1c[nH]n2c(=O)c(Cc3ccccc3F)c(C)nc12 | 1 | 0.083
O=C(CCn1c(=O)c2sccc2n(Cc2ccc(F)cc2)c1=O)NCc1ccccc1 | 1 | 1
CCC(=O)N1c2ccc(S(=O)(=O)N3CCN(c4cc(C)ccc4C)CC3)cc2CC1C (configuration not stated) | 0.88 | -0.5
COc1ccc(CCNC(=O)c2ccc3c(c2)N(Cc2ccc(F)cc2)CCS3)c(OC)c1 | 0.82 | -8.9
CC1CCN(S(=O)(=O)c2ccc3[nH]c(=O)cc(C(=O)NC4CCCCCCC4)c3c2)CC1 | 1.1 | 2
COc1ccc(CCNC(=O)Cn2nc(Cc3ccncc3)c3ccccc3c2=O)c(OC)c1 | 1.1 | 1.1
COc1ccc(-c2nnn(Cc3ccccn3)n2)cc1 | 1 | 0.48
CCCCSCCCNC(=O)CSCc1nc(-c2ccccc2F)oc1C | 0.91 | -1.7
CN1C(=O)CSc2ccc(NC(=O)Nc3ccccn3)cc21 | 1.1 | 1.8
CCC(=O)N1CCc2cc(S(=O)(=O)N3CCCCC3c3cccnc3)ccc21 (configuration not stated) | 1 | 0.59

Copied from the results shown, 3 compounds:
SMILES | CBX7 AlphaScr | CBX7 AlphaScr z-score
CCC(=O)N1c2ccc(S(=O)(=O)N3CCN(c4cc(C)ccc4C)CC3)cc2CC1C (configuration not stated) | 0.88 | -0.5
COc1ccc(CCNC(=O)c2ccc3c(c2)N(Cc2ccc(F)cc2)CCS3)c(OC)c1 | 0.82 | -8.9
CC1CCN(S(=O)(=O)c2ccc3[nH]c(=O)cc(C(=O)NC4CCCCCCC4)c3c2)CC1 | 1.1 | 2

Following part:
SMILES | CBX7 AlphaScr | CBX7 AlphaScr z-score
Cc1ccc(N2C(=O)C(N3C(=O)c4ccccc4C3=O)C2c2ccc3c(c2)OCO3)cc1 (configuration not stated) | 1.1 | 1.8
CCOc1ccc(NC(=O)c2c(C)nn(-c3ccccc3)c2Cl)cc1 | 1 | -0.1
COCCN(C(=S)Nc1cc(C)cc(C)c1)C(C)c1cccnc1 (configuration not stated) | 1 | 0.17
COc1cccc(N2C(=O)CC(N3CCOCC3)C2=O)c1 (configuration not stated) | 0.89&0.92 | -1.7&-1.1
O=C1CC(Nc2ccccc2)C(=O)N1c1ccc(N2CCOCC2)cc1 (configuration not stated) | 0.98 | -0.53
Cc1ccc(Cn2cc(C(=O)c3ccc4c(c3)OCO4)c(=O)c3cc4c(cc32)OCO4)cc1 | 0.74 | -2.5
COc1ccccc1OCCCn1c(-c2ccc(Cl)cc2)nc2ccccc2c1=O | 1.4 | 3.6
Cc1ccc(-c2nnc(Nc3ccc4c(c3)OCO4)c3ccccc23)cc1S(=O)(=O)N1CCOCC1 | 0.81 | -2.2
COc1cccc(-c2nc3ccc(Cl)cn3c2Nc2ccc(Cl)cc2)c1 | 0.85 | -1.9
Cc1ccc2c(c1)N(CC(=O)NCC1CCCO1)C(=O)CO2 (configuration not stated) | 1.1 | 1.5
CCCC(CCC)C(=O)NCCc1cc2ccc(C)c(C)c2[nH]c1=O | 1.1 | 1.8
CCOc1ccccc1NC(=O)CCCNC(=O)Cn1cnc2sc(C)c(C)c2c1=O | 1 | 0.86
CCc1ccc(-n2c(O)cnc2Nc2nc(C)cc(C)n2)cc1 | 1.1 | 0.49
Cc1cc(=O)n2nc(N3CCC(C(=O)NC4CCCc5ccccc54)CC3)sc2n1 (configuration not stated) | 1.1 | 1
COc1ccc(C)cc1S(=O)(=O)NCCc1c(C)[nH]c2ccccc12 | 0.87 | -1.9
Clc1ccc(Cn2c(COc3ccccc3)nc3ccccc32)c(Cl)c1 | 1 | 0.17
CCOCCCNC(=O)c1ccc2c(c1)ncn2-c1ccccc1OCC | 0.95 | -0.68
COc1cccc(CN2C(=O)c3ccccc3Sc3ccc(C(=O)NCCc4ccc(Cl)cc4)cc32)c1 | 0.82 | -2.8
CCC(C)NC(=O)C1CC(c2ccc(OC)cc2)=NO1 (configuration not stated) | 1 | -0.05
Fc1ccccc1CSc1nc2ccncc2n1Cc1cccc(Cl)c1 | 1 | 1.3
CC(C)c1ccc(C(O)Cc2nc3ccccc3n2C)cc1 (configuration not stated) | 1.1 | 2.3
CCCC(=O)N1CC(=O)Nc2ccc(Br)cc2C1c1ccccc1 (configuration not stated) | 0.94 | -0.24
Fc1ccc(-n2cc(-c3ccccc3)c3c(NCCN4CCOCC4)ncnc32)cc1 | 0.95 | -1.2
C=CCn1c(Cc2c(C)[nH]c3ccccc23)nnc1SCC(=O)Nc1ccccc1 | 0.89 | -3.1
Clc1ccccc1C1CC(c2ccco2)=Nc2ccccc2S1 (configuration not stated) | 0.66 | -5.3
O=c1[nH]c2ccccc2nc1-c1ccccc1NCc1cc(C(F)(F)F)cc(C(F)(F)F)c1 | 1.1 | 0.53
COc1ccc(-c2noc(CCC(=O)NC3CCCCC3)n2)cc1 | 1 | 0.3
COc1ccc(-c2nc3ncccn3c2Nc2cccc(C(F)(F)F)c2)cc1 | 1.1 | 5
COc1ccc2nc(SCC(=O)Nc3ccc(S(N)(=O)=O)cc3)[nH]c2c1 | 1.1 | 1.5
Cc1ccc2nc(-c3c(F)cccc3Cl)c(Nc3ccccc3C)n2c1 | 1.1 | 1
COc1ccc(-c2cc(C(F)(F)F)n3nc(C(=O)N4CCCCCC4)cc3n2)cc1OC | 1.2 | 6.8
CCOC(=O)c1c(NC(=O)COc2ccccc2C(C)(C)C)sc2c1CCC(C)C2 (configuration not stated) | 1.2 | 2.4
CCOCCCNC(=O)c1cn(C2CCCC2)c(=O)c2c1c1ccccc1n2C | 0.99 | -0.34
CCCCN(CCCNC(=O)c1csc2c1CCCCC2)Cc1ccccc1 | 1 | -0.0039
CCN1CCN(C(c2cccs2)C(C)NC(=O)C(=O)NCCc2c[nH]c3ccccc23)CC1 (configuration not stated) | 1 | 0.44
CCOC(=O)Cc1csc(NC(=O)c2ccccc2)n1 | 1.1 | 1.5
COc1ccc(NC(=O)Cn2ncc3c2-c2cc(C)ccc2OC3)cc1OC | 1.1 | 1.4
O=C(NCc1nnc(SCC(=O)N2CCC(Cc3ccccc3)CC2)o1)c1ccccc1F | 0.88 | -1.9
Cc1cccc(N2CCN(C(=O)CCc3c(C)nc4ncnn4c3C)CC2)c1C | 1.1 | 1.7
COc1ccc(NC(=O)NCCN2CCN(Cc3ccccc3)CC2)cc1 | 1.2 | 2.5
O=C(O)C1Cc2c([nH]c3ccccc23)C(c2ccc(O)cc2)N1 (configuration not stated) | 0.95 | -0.52
COc1cccc(N2CCN(C(=O)c3cccc(NC4=NC5CS(=O)(=O)CC5S4)c3)CC2)c1 (configuration not stated) | 1 | 0.25
CCc1ccc2c(c1)c(=O)c(S(=O)(=O)c1ccc(C)c(C)c1)cn2CC(=O)Nc1ccc(C)cc1 | 0.93 | -0.97
CCOC(=O)c1c(NC(=O)COc2cccc(C)c2C)sc2c1CCC(CC)C2 (configuration not stated) | 1.1 | 2.9
O=C(CN1C(=O)CSc2ccc(S(=O)(=O)N3CCCC3)cc21)NCCCN1CCCC1=O | 1 | 1.4
Cc1cc(C)n(-c2nc3ccccc3nc2Nc2cc(C(=O)O)ccc2C)n1 | 1 | 1.4
CCOc1ccc2nc(NC(=O)CCS(=O)(=O)c3ccccc3)sc2c1 | 1 | 0.3
CC(C)c1cc(C(=O)Nc2cc(C(F)(F)F)ccc2Cl)no1 | 1.6 | 9.5

Brought forward from above: three compounds, followed by the next part.
SMILES | CBX7 AlphaScr | CBX7 AlphaScr z-score
Cc1cc(C)n(-c2nc3ccccc3nc2Nc2cc(C(=O)O)ccc2C)n1 | 1 | 1.4
CCOc1ccc2nc(NC(=O)CCS(=O)(=O)c3ccccc3)sc2c1 | 1 | 0.3
CC(C)c1cc(C(=O)Nc2cc(C(F)(F)F)ccc2Cl)no1 | 1.6 | 9.5
O=C(CSc1ccc2ccccc2n1)Nc1nsc(-c2ccccc2)n1 | 0.9 | -3.6
Cc1c(Br)cc2nc(-c3ccc(F)cc3)c(-c3ccc(F)cc3)nc2c1C | 1.2 | 0.79
CCOc1ccccc1NC(=O)CSc1nnc(CNC(=O)c2cccs2)o1 | 1 | 0.58
COc1ccc(-c2nc(Nc3ccc(C)cc3C)c3ccccc3n2)cc1OC | 0.99 | -0.35
Cc1cccc(CSc2nc3ccncc3n2CC(=O)NCC2CCCO2)c1 (configuration not stated) | 1 | 0.57
COc1ccc(C(=O)NCCc2cc3cc(C)c(C)cc3[nH]c2=O)c(OC)c1 | 0.98 | -0.16
COc1ccccc1/C=C/c1nc2ccccc2n1C | 1.2 | 7.5
Cc1ccn2c(Nc3ccccc3C)c(-c3ccc(Cl)cc3)nc2c1 | 0.85 | -1.5

Ordered by SMILES length (high to low): part of the list above
SMILES | CBX7 AlphaScr | CBX7 AlphaScr z-score
Cc1c(Br)cc2nc(-c3ccc(F)cc3)c(-c3ccc(F)cc3)nc2c1C | 1.2 | 0.79
O=C(CSc1ccc2ccccc2n1)Nc1nsc(-c2ccccc2)n1 | 0.9 | -3.6
COc1ccccc1/C=C/c1nc2ccccc2n1C | 1.2 | 7.5
